YB-1 expr inh: YB-1 expression inhibition | U2OS, qRT-PCR YB-1 vs CDIP delta delta Cp, 16 h; stronger effect = higher value; zero = DMSO, each unit about twofold | delta delta Cp (YB-1 minus CDIP) (concentration not given with the values) | hit rate 0.37% among 30,000;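 active = delta delta Cp rounded down to an integer at or above 3, about 3 SD of DMSO wells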;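 note: higher means less YB-1 transcript or more CDIP transcript relative to DMSO; stock transfer was 100 nL into about 100 µL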
Hedgehog inh: blocks Sonic Hedgehog signaling | Shh-LIGHT2 Gli-luciferase reporter, 30 h | inhibition, % (concentration not given with the values) | hit rate 2.1% among 22,000 | AID 2313;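 active = replicate mean of 65% or more; inconclusive = mean lower but half the replicates past it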;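 note: pathway switched on by Shh-conditioned medium diluted 1 in 25 in low serum; 100 nL library stock added to about 40 µL; 0% = median of neutral wells and 100% = positive control level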
MITF inh: blocks MITF activity; TRPM1 promoter luciferase, luminescence, 24 h; AID 2240; hit rate 0.28% among 37,000; inhibition, % (concentration not given with the values);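 active = most replicates at 85% or more, or half of them and the mean; inconclusive = half reach 85% but not the mean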;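 note: human melanocyte line stably carrying TRPM1 promoter luciferase reporter; 0% = vehicle wells and 100% = a positive control; the first replicate is given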
PD-1 reverse act: activators reversing PD-1 mediated T-cell inhibition; primary human CD4 T cells, PD-L1 beads, CellTiter-Glo 96 h; 29,000 tested, under 10 active; AID 2316; activation, % (concentration not given with the values);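 active = replicate mean of 50% or more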;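 note: 0% = median vehicle wells and 100% = positive control; 100 nL library stock added to about 50 µL; numbers are from one replicate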
Numbers without * were called inactive; ? = inconclusive; · = no result given.

SMILES	PD-1 reverse act	YB-1 expr inh	MITF inh	Hedgehog inh
C[C@H](CO)N1C[C@H](C)[C@H](CN(C)C(=O)Nc2cccc3ccccc23)Oc2ccc(NC(=O)Cn3cnnn3)cc2C1=O	2.1	-0.51	9	-19
C[C@@H]1CN([C@@H](C)CO)C(=O)c2cc(NC(=O)Nc3ccc4c(c3)OCO4)ccc2O[C@@H]1CN(C)Cc1ccc(Oc2ccccc2)cc1	-0.1	0.26	6	?
COc1ccc(OC)c(NC(=O)c2ccc(CSc3nnc(C)s3)cc2)c1	-1.2	·	-66	·
CNC[C@H]1OCCCC[C@@H](C)Oc2ccc(NC(=O)Nc3c(C)noc3C)cc2C(=O)N([C@H](C)CO)C[C@@H]1C	·	-0.48	5	-4
COc1cccc(NC(=O)CCc2nc(-c3ccc(C)cc3)no2)c1	-2.3	·	46	·
C[C@@H]1CN([C@@H](C)CO)C(=O)c2cccc(NC(=O)CCCCCC(=O)Nc3ccccc3N)c2O[C@H]1CN(C)Cc1ccc(Oc2ccccc2)cc1	-4.4	-0.27	64	·
O=C(/C=C/c1ccccc1)c1ccc(O[C@@H]2O[C@H](CO)[C@@H](O)[C@H](O)[C@H]2O)cc1O	·	0.034	-52	-12
C[C@H](CO)N1C[C@H](C)[C@H](CN(C)Cc2ccc(Oc3ccccc3)cc2)Oc2ccc(NC(=O)NC3CCCCC3)cc2CC1=O	0.4	0.043	1	16
COc1ccc(F)cc1S(=O)(=O)Nc1cccc(S(=O)(=O)N2CC3(C)CC2CC(C)(C)C3)c1 (stereo unspecified)	2.2	·	21	·
CC(C)c1ccc(NC(=O)CN(C)S(=O)(=O)c2ccc(F)cc2)cc1	-1.9	·	0	·
Cc1noc(C)c1S(=O)(=O)N(C)C[C@@H]1Oc2ccc(NC(=O)Nc3ccccc3)cc2CC(=O)N([C@H](C)CO)C[C@@H]1C	1.8	-0.019	-21	-34
CNC[C@H]1Oc2ccc(NS(C)(=O)=O)cc2C(=O)N([C@@H](C)CO)C[C@H]1C	0.9	0.026	7	·
COC(=O)C[C@H]1C(C)(C)C(=O)[C@@H]2C[C@@]3(O)C4=CC(=O)O[C@@H](c5ccoc5)[C@]4(C)CCC3[C@@]1(C)C2=O (stereo partly specified)	·	0.12	-51	86*
COC(=O)c1c(-c2c(Cl)cccc2Cl)noc1C(=O)NN	0.6	-0.29	-3	-30
CCn1c(NCCCO)nc2ccccc21	0.4	·	0	·
C[C@@H]1CN([C@@H](C)CO)C(=O)c2cccc(NC(=O)C3CCOCC3)c2O[C@H]1CN(C)Cc1ccc(Oc2ccccc2)cc1	-5.4	-0.54	24	43
C[C@@H]1CN([C@@H](C)CO)C(=O)c2cc(NC(=O)Nc3ccccc3)ccc2O[C@@H]1CN(C)Cc1ccc(C(=O)O)cc1	2.5	0.15	-8	-21
COc1ccc(S(=O)(=O)Nc2ccc3c(c2)C(=O)N([C@H](C)CO)C[C@@H](C)[C@H](CN(C)S(=O)(=O)c2ccc(F)cc2)O3)cc1	0.3	0.28	-1	21
O=c1c(O)c(-c2cc(O)c(O)c(O)c2)oc2cc(O)cc(O)c12	·	0.065	-5	-41
Cc1noc(C)c1S(=O)(=O)Nc1ccc2c(c1)C(=O)N([C@H](C)CO)C[C@H](C)[C@@H](CN(C)S(=O)(=O)c1cccs1)O2	-1.7	-0.45	0	-40
C=CCn1c(SCC(=O)O)nnc1-c1cccc(C)c1	0.2	·	-10	·
COc1ccc(NC(=O)N(C)C[C@H]2Oc3ccc(NC(=O)Nc4ccc(C(F)(F)F)cc4)cc3C(=O)N([C@@H](C)CO)C[C@@H]2C)cc1	·	-0.15	9	·
C[C@H](CO)N1C[C@H](C)[C@H](CN(C)Cc2ccc(C(=O)O)cc2)Oc2ccc(NC(=O)CCC(F)(F)F)cc2C1=O	0.1	0.66	-16	-23
CC(=O)c1cccc(N(CC(=O)Nc2ccccc2C(F)(F)F)S(C)(=O)=O)c1	-0.6	·	0	·
COc1ccc(CCNC(=O)c2c(-c3c(F)cccc3Cl)noc2C)cc1OC	0.4	·	-10	·
C[C@H]1CN([C@@H](C)CO)C(=O)c2cccc(NS(C)(=O)=O)c2O[C@H]1CN(C)Cc1ccc(C(=O)Nc2ccccc2N)cc1	1.6	0.0017	-13	·
O=C(Nc1ccccc1C(=O)NCc1cccnc1)c1ccc(Cl)cc1Cl	2.1	·	-7	·
CS(=O)(=O)N(CC(=O)Nc1cccc([N+](=O)[O-])c1)c1ccc2c3c(cccc13)CC2	-0.7	·	30	·
O=C(Nc1ccc(I)cc1C(=O)NCCN1CCOCC1)c1cccnc1	0.1	·	-16	·
CNC[C@H]1OCCCC[C@@H](C)Oc2ccc(NS(=O)(=O)c3ccc(F)cc3)cc2C(=O)N([C@H](C)CO)C[C@@H]1C	0.0	0.34	-3	·
Nc1cc(N)nc(SCC(=O)Nc2ccc(Oc3ccccc3)cc2)n1	2.1	·	19	·
C[C@H]1CN([C@@H](C)CO)C(=O)Cc2cc(NS(=O)(=O)c3ccc(Cl)cc3)ccc2O[C@@H]1CN(C)Cc1ccc(C(F)(F)F)cc1	-1.2	-0.35	-12	-23
Cc1noc(C)c1NC(=O)Nc1ccc2c(c1)C(=O)N([C@@H](C)CO)C[C@@H](C)[C@@H](CN(C)S(C)(=O)=O)O2	0.9	0.7	7	·
C[C@H](CO)N1C[C@H](C)[C@H](CN(C)C)Oc2ccc(NC(=O)NC3CCCCC3)cc2C1=O	0.4	0.19	-5	18
Cc1cc(C(=O)Nc2cccc3c2O[C@@H](CN(C)Cc2ccc(-c4ccccc4)cc2)[C@@H](C)CN([C@H](C)CO)C3=O)n(C)n1	-1.8	1.1	-35	-78
COc1ccc(S(=O)(=O)Nc2ccc3c(c2)C(=O)N([C@H](C)CO)C[C@H](C)[C@H](CN(C)C(=O)Nc2ccc(C(F)(F)F)cc2)OCCCC[C@@H](C)O3)cc1	-6.0	0.58	32	-22
Cc1noc(C)c1S(=O)(=O)N(C)C[C@H]1Oc2ccc(NS(C)(=O)=O)cc2CC(=O)N([C@H](C)CO)C[C@H]1C	·	-0.054	-7	-22
COc1ccc(S(=O)(=O)N(C)C[C@@H]2Oc3c(NS(C)(=O)=O)cccc3C(=O)N([C@H](C)CO)C[C@H]2C)cc1	·	-0.79	-5	3
Cc1cc(C)c(NS(=O)(=O)c2ccc(NC(=O)c3nc4nc(C)cc(C(F)F)n4n3)cc2)c(C)c1	-2.1	·	1	·
CC(O)CCCC1Cc2cccc(O)c2C(=O)O1 (stereo unspecified)	-1.3	1.5	1	-6
CCOc1ccc2nc(Nc3nc(C)cc(=O)[nH]3)nc(C)c2c1	-3.7	·	-6	·
CCn1c(SCC(=O)Nc2ccccc2OC)nnc1-c1ccco1	1.2	·	1	·
C[C@H]1CN([C@@H](C)CO)C(=O)c2cccc(N(C)C)c2O[C@H]1CN(C)S(=O)(=O)c1cn(C)cn1	·	0.057	8	17
C[C@@H]1CN([C@H](C)CO)C(=O)Cc2cc(NC(=O)C3CC3)ccc2O[C@@H]1CN(C)Cc1ccc(C(=O)O)cc1	·	0.46	-36	-5
C[C@H](CO)N1C[C@H](C)[C@@H](CN(C)CC2CCCCC2)Oc2ccc(NC(=O)Nc3cccc4ccccc34)cc2C1=O	0.1	0.02	-1	7
O=C(CSc1n[nH]c(-c2ccncc2)n1)N1c2ccccc2Sc2ccccc21	0.8	·	49	·
CCN1CCCC(OC(=O)C(c2ccccc2)c2ccccc2)C1 (stereo unspecified)	·	0.13	0	-28
O=C(CSc1ccccn1)Nc1ccc(Cl)cc1	-1.4	·	-104	·
O=C(CSc1nnnn1-c1ccccc1)Nc1ccc(-c2nc3ccccc3s2)cc1	0.3	·	-68	·
Cc1noc(C)c1NC(=O)Nc1ccc2c(c1)C(=O)N([C@@H](C)CO)C[C@H](C)[C@H](CN(C)S(=O)(=O)c1cccs1)O2	1.8	0.11	2	·

Filtered by structure, the compounds so far containing an NH in an aromatic ring (2)
SMILES	PD-1 reverse act	YB-1 expr inh	MITF inh	Hedgehog inh
CCOc1ccc2nc(Nc3nc(C)cc(=O)[nH]3)nc(C)c2c1	-3.7	·	-6	·
O=C(CSc1n[nH]c(-c2ccncc2)n1)N1c2ccccc2Sc2ccccc21	0.8	·	49	·

3 compounds from above with just PD-1 reverse act, MITF inh and Hedgehog inh:
| mol | PD-1 reverse act | MITF inh | Hedgehog inh |
| --- | --- | --- | --- |
| O=C(CSc1n[nH]c(-c2ccncc2)n1)N1c2ccccc2Sc2ccccc21 | 0.8 | 49 | · |
| CCN1CCCC(OC(=O)C(c2ccccc2)c2ccccc2)C1 (stereo unspecified) | · | 0 | -28 |
| O=C(CSc1ccccn1)Nc1ccc(Cl)cc1 | -1.4 | -104 | · |

More structures:
SMILES	PD-1 reverse act	YB-1 expr inh	MITF inh	Hedgehog inh
C[C@H]1CN([C@@H](C)CO)C(=O)c2cc(N(C)C)ccc2O[C@H]1CN(C)S(=O)(=O)c1ccc(Cl)cc1	-0.1	0.32	-10	16
COC(=O)c1ccc(Oc2ccc(Cl)cc2Cl)o1	1.3	0.046	-33	18
CC(C)NC(=O)N(C)C[C@@H]1Oc2ccc(NC(=O)Nc3ccc4c(c3)OCO4)cc2C(=O)N([C@@H](C)CO)C[C@H]1C	1.1	-0.44	-2	-9
C[C@H]1CN([C@@H](C)CO)C(=O)c2cc(NC(=O)Nc3ccc(F)cc3)ccc2O[C@@H]1CN(C)Cc1ccc(Cl)c(Cl)c1	0.5	0.021	10	-13
COc1ccc(S(=O)(=O)N(C)C[C@@H]2Oc3ccc(NS(=O)(=O)c4c(C)noc4C)cc3C(=O)N([C@@H](C)CO)C[C@H]2C)cc1	·	-0.15	-4	23
CC1=C2C[C@@]3(C)[C@@H](CCC[C@@H]3C)C[C@@]2(O)OC1=O	1.4	-0.41	6	14
Cc1c(C)c2c(c(C)c1O)CCC(C)(C(=O)O)O2 (stereo unspecified)	·	0.16	-4	40
N#Cc1c(C(F)(F)F)cc(-c2cccs2)nc1SCC(=O)Nc1ccccc1C(F)(F)F	1.2	·	4	·
C[C@@H]1CN([C@@H](C)CO)C(=O)c2cccc(NS(=O)(=O)c3ccccc3)c2O[C@H]1CN(C)C(=O)Nc1ccccc1	1.7	0.0099	-13	33
CN([NH2+][O-])c1cc(O)ccc1O	-6.7	0.56	35	-35
CC(C)NC(=O)Nc1ccc2c(c1)CC(=O)N([C@@H](C)CO)C[C@@H](C)[C@@H](CN(C)C(=O)Nc1ccc(C(F)(F)F)cc1)O2	-0.5	0.34	-2	-4
COc1ccc(S(=O)(=O)N(C)C[C@@H]2Oc3ccc(NS(=O)(=O)c4cn(C)cn4)cc3C(=O)N([C@@H](C)CO)C[C@@H]2C)cc1	0.9	-0.021	-3	-9
C[C@H]1CN([C@@H](C)CO)C(=O)c2cc(NC(=O)C3CCCCC3)ccc2O[C@H]1CN(C)Cc1ccc2c(c1)OCO2	0.9	-0.25	-3	·
C=CCN1CCc2c(cc(O)c(O)c2Cl)C(c2ccccc2)C1 (stereo unspecified)	·	-0.0044	3	?
CC(=O)N[C@H]1[C@H](O[C@H]2CC[C@@]3(C)C(CC[C@]4(C)C3CC=C3[C@@H]5CC(C)(C)CC[C@]5(C(=O)OC5OCC(O)C(O)C5O)C(O)C[C@]34C)C2(C)C)O[C@H](COC2OCC(O)C(OC3OCC(O)C(O)C3O)C2O)[C@@H](O[C@@H]2O[C@@H](C)[C@H](O)[C@@H](O)[C@H]2O[C@@H]2O[C@@H](C)[C@H](O)[C@@H](O)[C@H]2O)[C@@H]1O (stereo partly specified)	-7.9	-3.4	-49	33
FC(F)(F)Oc1ccc(OCc2n[nH]c(=S)o2)cc1	0.4	-0.099	-6	-50
C[C@H]1CN([C@@H](C)CO)C(=O)c2cc(NC(=O)Nc3ccc(C(F)(F)F)cc3)ccc2O[C@@H]1CN(C)Cc1ccc(Cl)c(Cl)c1	-6.3	0.14	18	·
COC(=O)CSc1nc(N(C)C)nc(N(C)C)n1	0.9	·	7	·

Assay outcomes from PubChem.

These rows are one share of the data (hit frequency here may not be typical).
